Assay outcomes as filed in PubChem.
Yeast UUG start: yeast start codon fidelity modulation | S. cerevisiae UUG-firefly luciferase reporter, luminescence/redox ratio | activity score, % at 18.7 µM | 350,000 compounds, 0.13% hits;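 active = replicate mean at a twofold rise or more, about +100% in these data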;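 note: firefly luciferase made from a UUG start codon reports start codon fidelity; reporter light over untreated wells divided by growth signal over untreated wells; some hits fall short of that in this replicate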
eIF4H inh: inhibitors of RNA binding by human eIF4H | Q15056 | eIF4H fluorescence polarization binding assay | inhibition, % at 35 µM | 290,000 compounds, 0.94% hits;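 active = 50% or more with normal probe brightness, or confirmed in later tests; inconclusive = above 50% with abnormal brightness, or retests that disagree; inactive = below 50% or failed in later tests; about a fifth of its hits are not listed in these tables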;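 note: calls also rest on retests at 20 µM and on dose response follow-up; 0% = protein and probe with vehicle and 100% = probe without protein; strong numbers were not always called active; many hits fall short of the cut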
PABP FP inh: blocks human PABP binding to poly(A) RNA; fluorescence polarization; 290,000 compounds, 1% hits; P11940; inhibition, % at 35 µM;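 active = 50% or more with normal probe brightness, or confirmed in later tests; inconclusive = above 50% with abnormal brightness, or retests that disagree; inactive = below 50% or failed in later tests; about a fifth of its hits are not listed in these tables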;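 note: calls also rest on retests at 20 µM and on dose response follow-up; controls were probe without protein and protein plus probe with vehicle; some compounds called inactive have numbers as strong as hits; many hits fall short of the cut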
Target sequence (P11940 whole entry, looked up): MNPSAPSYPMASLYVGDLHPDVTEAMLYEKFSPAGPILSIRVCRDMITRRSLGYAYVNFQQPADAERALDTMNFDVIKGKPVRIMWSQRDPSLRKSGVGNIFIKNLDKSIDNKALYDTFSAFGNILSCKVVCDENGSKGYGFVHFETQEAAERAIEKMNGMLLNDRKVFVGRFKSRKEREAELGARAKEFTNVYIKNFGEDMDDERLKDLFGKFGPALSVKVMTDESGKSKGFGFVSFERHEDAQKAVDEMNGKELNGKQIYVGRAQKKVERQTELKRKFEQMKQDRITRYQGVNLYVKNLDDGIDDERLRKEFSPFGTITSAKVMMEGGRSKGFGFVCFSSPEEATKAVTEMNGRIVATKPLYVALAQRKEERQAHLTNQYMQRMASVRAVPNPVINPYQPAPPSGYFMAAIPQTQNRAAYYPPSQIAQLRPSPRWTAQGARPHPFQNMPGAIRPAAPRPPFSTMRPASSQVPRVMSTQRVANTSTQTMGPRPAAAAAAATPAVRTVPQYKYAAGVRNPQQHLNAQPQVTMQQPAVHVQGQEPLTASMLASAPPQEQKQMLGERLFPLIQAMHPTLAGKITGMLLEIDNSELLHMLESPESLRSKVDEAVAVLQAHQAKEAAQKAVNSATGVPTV
MT1-MMP act inh: MT1-MMP (human) activation inhibition. P50281. HT1080 RFP-PRO-GFP cells, GFP/RFP ratio fluorescence, overnight; percent of plate control window, DMSO zero. GFP/RFP ratio change, % at 20 µM. 360,000 compounds, 0.061% hits. AID 651647;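 active = GFP/RFP ratio change of at least 30% with cell ATP level not reduced by more than half and red fluorescence within 50% of control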; note: strong numbers were not always called active
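Test system: HT1080 cells expressing an RFP-PRO-GFP fluorescent reporter construct / Compound dosing: single-point 20 µM compound, 1% DMSO / Schedule: cells overnight before dosing, compound overnight, 37 °C, 5% CO2 / Evaluation: GFP/RFP fluorescence ratio / Control set: DMSO and RFP-L50D-GFP cell wells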
Rce1 inh: inhibitors of yeast Ras-converting enzyme; Q03530; yeast membranes, quenched prenylated peptide cleavage fluorescence; calls only; 290,000 compounds, 0.27% hits;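 active = fall in fluorescence gain of 50% or more versus controls, with final raw signal at or below 3038400; inconclusive = same 50% fall but final raw signal above 3038400; inactive = fall in fluorescence gain under 50%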;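 note: plate controls were neutral control wells for no effect and wells lacking membranes for full effect; tested at 10 µM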
Target sequence (Q03530 whole entry, looked up): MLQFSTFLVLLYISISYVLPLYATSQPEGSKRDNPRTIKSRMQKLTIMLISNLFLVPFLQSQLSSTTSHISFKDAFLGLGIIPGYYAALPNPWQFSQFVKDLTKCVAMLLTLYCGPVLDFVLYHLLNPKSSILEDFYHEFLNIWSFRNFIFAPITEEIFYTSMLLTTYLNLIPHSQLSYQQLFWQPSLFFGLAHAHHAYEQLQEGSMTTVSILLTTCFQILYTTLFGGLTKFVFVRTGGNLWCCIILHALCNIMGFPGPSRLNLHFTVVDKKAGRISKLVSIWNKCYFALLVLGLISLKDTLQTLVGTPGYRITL
Env fusion inh: blocks HIV Env-driven cell-cell fusion; HeLa-JRFL Env/CEM21 cell fusion, luciferase; inhibition, % at 12.3 µM; 360,000 compounds, 1.1% hits;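 active = mean replicate inhibition score of at least 50 and every replicate individually at or above 50; inconclusive = only one of the two criteria met; inactive = mean below 50 and not all replicates reaching 50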;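 note: 0% = plate neutral controls and 100% = maraviroc near 300 nM; one replicate is shown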
CSC inhib: cancer stem cell inhibition; cancer stem cell-like cells viability, luminescence; inhibition, % at 7.5 µM; 300,000 compounds, 1.1% hits; AID 2717;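 active = mean at 75% or more and at least half the replicates too; inconclusive = mean and replicates disagree; tested in HMLE shEcad cells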;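 note: 0% = median of negative and 100% = median of positive control wells; the first replicate is given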
eIF4H inh retest: recorded beside eIF4H inh, whose call it bears; inhibition, %; compound at 20 µM; confirmation average;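 mean of two retest wells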
PABP FP inh retest: further read-out of PABP FP inh, marked with its call; inhibition, %; compound at 20 µM; confirmation repeats;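 mean of two retest wells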
MT1-MMP act inh RFP: also measured in MT1-MMP act inh; calls as there; RFP signal change, %; measured here: RFP expression control read;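 0 = vehicle wells; hits needed this value within 50% of zero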
The depositor's hits bear a star; i = inactive; ? = inconclusive; · = no result given; + = active, no number; & = joins results of further samples.

SMILES	Yeast UUG start	eIF4H inh	PABP FP inh	MT1-MMP act inh	MT1-MMP act inh RFP	Rce1 inh	Env fusion inh	CSC inhib	others
COc1ccccc1Nc1nnc(SCC(=O)Nc2cc(C)on2)s1	-12	8	-5	1	0	i	·	-2
NS(=O)(=O)c1ccc(N=Nc2c(O)c(C(=O)O)cc3ccccc23)cc1	-17	8	2	11	-6	i	20	7
Cc1ccc(C(=O)C(C)OC(=O)CCN2C(=O)C3C4C=CC(C5CC45)C3C2=O)cc1 (stereo not given)	20	-1	-6	-3	-2	i	-41	-8
O=C(CCNC(=O)c1ccccc1)NNC(=O)COc1ccccc1Cl	-8	·	·	-2	6	·	-23	·
Cc1ccccc1NC(=O)CN1CCN(C)CC1	-7	11	5	1	1	i	15	-1
N#Cc1cnc(Sc2ccccc2)nc1	·	2	-2	-1	-1	i	-4	8
C=CCn1c(C)cc(C(=O)CSc2nc3ccccc3[nH]2)c1C	·	13	12	1	-19	i	28	3
Cc1nccn1-c1ccc(C=O)cc1	·	0	12	2	7	i	-11	-10
COC(=O)[C@@H]1C[C@@]2(O)[C@@H](O)[C@@H](O)[C@@H](O)C[C@H]2N1Cc1ccc(-c2ccccc2)cc1	-8	-13	1	4	3	i	-2	-6
O=C(c1cc2cc(Br)ccc2oc1=O)N1CCN(c2ccccn2)CC1	-6	4	-1	-3	-1	i	-33	-11
O=C(COC(=O)c1ccc([N+](=O)[O-])s1)Nc1ccc(Cl)cn1	·	13	28	-2	10	·	-12	-15
CCOC(=O)/C=C1\CC(C(=O)OCC)Oc2c(OC)cccc21 (stereo not given)	-10	·	·	0	0	·	-4	·
O=Cc1ccccc1OCCOc1ccccc1C=O	1	-1	6	8	1	i	·	53
C=CCN1C=CC(=O)[C@@H](O)[C@H]1c1ccccc1Br	-8	·	·	1	5	·	-33	·
CCN(CC)c1nc(-c2cccc(OC)c2O)nc2ccccc12	-12	6	-2	-2	-2	i	·	·
CCc1noc(C)c1C(=O)Nc1ccc(F)c(F)c1F	-4	·	·	-8	2	i	7	-8
CC1C(=O)Nc2ccc(S(=O)(=O)N3CCCCCC3)cc21 (stereo not given)	0	·	·	-1	2	·	·	10
CCOC(=O)N1CCC(NC(=O)c2ccc3nc(N4CCOCC4)sc3c2)CC1	-7	-6	-5	13	2	i	·	·
CCS(=O)(=O)c1nc(S(=O)(=O)c2ccc(C)cc2)c(N2CCC(C)CC2)s1	-13	0	6	-8	-7	i	21	10
O=C(CCN1C(=O)c2cccc3cccc(c23)C1=O)N1CCOCC1	-15	0	-6	-5	-7	i	-59	2
COC(=O)c1nnn(CC(=O)NC(=O)Nc2ccccc2)c1C(=O)OC	-9	4	-4	2	-1	i	·	-13
O=C(CN1CCN(c2ccc([N+](=O)[O-])cc2)CC1)Nc1ccccn1	·	5	66	4	-12	i	5	14	eIF4H inh retest=1;PABP FP inh retest=1
CCOC(=O)NC(=O)/C(C#N)=C\c1ccccc1	·	8	-9	0	1	i	-7	-15
O=C(O)CSc1nnc(-c2ccc3c(c2)OCO3)n1-c1ccccc1	·	4	6	-1	3	i	2	·
CC(=O)c1ccc(-n2nnnc2SCC(=O)N2CCN(C(=O)c3ccco3)CC2)cc1	-3	-3	-6	3	3	i	·	-6

A portion of the results above, for reference:
SMILES	Yeast UUG start	eIF4H inh	PABP FP inh	MT1-MMP act inh	MT1-MMP act inh RFP	Rce1 inh	Env fusion inh	CSC inhib	others
COc1ccccc1Nc1nnc(SCC(=O)Nc2cc(C)on2)s1	-12	8	-5	1	0	i	·	-2
NS(=O)(=O)c1ccc(N=Nc2c(O)c(C(=O)O)cc3ccccc23)cc1	-17	8	2	11	-6	i	20	7

(listing goes on)
SMILES	Yeast UUG start	eIF4H inh	PABP FP inh	MT1-MMP act inh	MT1-MMP act inh RFP	Rce1 inh	Env fusion inh	CSC inhib	others
O=C(CSc1ncnc2c1nnn2Cc1ccccc1F)N1CCN(c2ccccc2)CC1	2	-9	-3	-6	-4	i	·	·
C[C@H](NC(=O)c1ccccc1)C(=O)N1CCN(Cc2ccc3c(c2)OCO3)CC1	-9	·	·	0	4	·	0	5
C[C@H](CO)N1C[C@H](C)[C@H](CN(C)Cc2ccncc2)Oc2ncc(C#CC3CC3)cc2C1=O	21&16&3	·	·	0	8	·	1	·
O=C(CCc1ccccc1)Nc1nnc(-c2ccccn2)o1	·	-4	2	3	3	i	1	5
CCOCCc1nnc(NC(=O)CS(=O)(=O)Cc2ccccc2)s1	-12	1	-5	3	10	i	10	-7
COc1cccc(CNc2nc3cc(-c4cccc(Cl)c4)sc3c(=O)n2C)c1	-8	·	·	1	-17	·	0	·
COc1ccc(Cc2nnc(SCC(=O)NCc3ccco3)o2)cc1	-6	-7	8	2	2	i	-111	4
CCN1CCN(Cc2ccc(NC(=O)c3ccc(C)c(NC(=O)c4cccc5[nH]ccc45)c3)cc2C(F)(F)F)CC1	-17&-36	-6	4	-8&-9	-2&-1	i	48&8	5
CC(=O)Nc1cc(-c2ccc(S(C)(=O)=O)cc2)cn2c(-c3ccc(F)c(Cl)c3)cnc12	1	·	·	-7	-5	·	0	·
CC(C)Cn1cc(C(=O)N2CCOCC2)c2c3ccccc3n(C)c2c1=O	2	-12	-1	3	-1	·	-6	-12
CCC(=O)NC(=S)Nc1ccc2oc(-c3ccc(OC)cc3)nc2c1	·	5	-7	2	4	i	-15	8
Cn1c(SCC(=O)Nc2ccc3c(c2)OCCO3)nnc1-c1ccco1	-18	-8	2	2	4	i	·	-9
CC1CCCCC1NC(=O)CSc1nncs1 (stereo not given)	-9	-7	-1	0	9	i	-12	-1
CCOC(=O)c1oc2ccc(Br)cc2c1CSc1nnc(C)s1	-13	3	-4	-4	-2	i	19	-6
Cc1cccc(NC(=O)CSc2nc(C)c(Cc3ccccc3)c(=O)[nH]2)c1	-15	-2	-6	7	0	i	-12	-9
CCCc1cc(C(=O)N2CCCC(N3CCN(c4ccc(F)cc4)CC3)C2)no1 (stereo not given)	-11	·	·	2	-6	i	-5	-3
C=CCn1c(SCC(=O)OCC)nc2cc(C(=O)NCc3ccco3)ccc2c1=O	-14	-1	5	6	6	i	-7	-12
CCOc1ccc(Oc2c(/C=N/NC(=O)C3CC3)c(C)nn2-c2ccccc2)cc1	-10	2	5	-18	-10	i	-24	23
O=C1NC(=S)SC1=Cc1ccccc1C(=O)O	-21	·	·	7	6	·	-24	·
FC(F)(F)c1cccc(NC(=S)NCCN2CCOCC2)c1	-9	-2	4	-2	2	i	8	-13
Cn1c(SCc2cccc(Br)c2)nnc1-c1ccncc1	-19	12	5	2	4	i	-2	-8
CCOc1cc(C(=S)N2CCOCC2)ccc1OS(=O)(=O)c1ccccc1[N+](=O)[O-]	·	6	-5	2	-1	i	32	-10
CN1CCN(S(=O)(=O)c2cc([N+](=O)[O-])ccc2Cl)CC1	·	3	0	3	1	i	5	-4
CCOC(=O)Cn1c(=NC(=O)C(C)(C)C)sc2cc([N+](=O)[O-])ccc21	·	2	-1	0	-1	i	5	-5
COc1ccc(-c2cc(C(=O)O)c3c(C)nn(-c4ccccn4)c3n2)cc1	·	97	10	·	·	i	·	-16	eIF4H inh retest=-9;PABP FP inh retest=8

Five entries from above, ordered by length of the SMILES, low to high.
SMILES	Yeast UUG start	eIF4H inh	PABP FP inh	MT1-MMP act inh	MT1-MMP act inh RFP	Rce1 inh	Env fusion inh	CSC inhib	others
O=C(CCc1ccccc1)Nc1nnc(-c2ccccn2)o1	·	-4	2	3	3	i	1	5
FC(F)(F)c1cccc(NC(=S)NCCN2CCOCC2)c1	-9	-2	4	-2	2	i	8	-13
COc1ccc(Cc2nnc(SCC(=O)NCc3ccco3)o2)cc1	-6	-7	8	2	2	i	-111	4
COc1cccc(CNc2nc3cc(-c4cccc(Cl)c4)sc3c(=O)n2C)c1	-8	·	·	1	-17	·	0	·
CCOc1ccc(Oc2c(/C=N/NC(=O)C3CC3)c(C)nn2-c2ccccc2)cc1	-10	2	5	-18	-10	i	-24	23

Next results
SMILES	Yeast UUG start	eIF4H inh	PABP FP inh	MT1-MMP act inh	MT1-MMP act inh RFP	Rce1 inh	Env fusion inh	CSC inhib	others
C[C@]12c3[nH]c4ccccc4c3CCN1C(=O)C(CC(=O)NCc1ccco1)C[C@@H]2C(=O)N1CCOCC1 (stereo not given in full)	17	·	·	4	4	·	?	-9
CCCC(=O)N1CCN(S(=O)(=O)c2cc(Cl)ccc2OC)CC1	-11	2	-6	-2	0	i	·	-7
COc1ccc(-c2cc3ccccc3n2CC(O)CNCCO)cc1 (stereo not given)	0	13	17	-1	2	+	·	0
COCc1[nH]nc2c1C(C1C=CCCC1)C(C#N)=C(N)O2 (stereo not given)	-6	-4	2	-7	-3	i	·	11
CN(CCCNC(=O)c1nn(C)c2c1CS(=O)(=O)c1ccccc1-2)Cc1ccccc1	·	-10	12	-2	1	i	6	-6
COc1cc(Cl)c(S(=O)(=O)n2cnc(C)c2)cc1Cl	-8	-14	2	2	4	i	·	-3
COc1cc(NS(=O)(=O)c2ccc(NC(=S)NC(=O)/C=C/c3ccco3)cc2)ncn1	-12	80	-8	-11	-3	i	8	·	eIF4H inh retest=40;PABP FP inh retest=20
O=C(COC(=O)c1cc(S(=O)(=O)N2CCOCC2)ccc1F)c1ccccc1	0	·	·	-1	6	·	·	-15
CCOc1ccc(Br)cc1S(=O)(=O)NCc1ccc(S(N)(=O)=O)cc1	13	-7	-2	-1	0	i	-12	-10
O=C(CSc1nnc(-c2cccs2)o1)N1CCOCC1	·	-6	28	3	2	i	·	·
O=C1NCCCc2c1oc1cc(Br)c(O)c(Br)c21	-8	8	11	-3	-8	i	-128	-5
O=C(C[C@@H]1C/C=C\C[C@H](Cc2ccc(F)cc2)C(=O)OC[C@@H]2CCCN2C1=O)N[C@H](CO)Cc1ccccc1	12	·	·	6	-1	·	20	·
CCCc1cc(C(=O)N(C)CC(=O)Nc2ccc(OCC)c(OCC)c2)sc1C	-7	·	·	0	2	i	·	-12
COC(=O)c1ccccc1NC(=O)COC(=O)CSCC(=O)N1CCOCC1	-7	1	1	0	1	i	5	-14
O=C(COC(=O)c1cnc(Cl)c(Cl)c1)c1ccc(F)cc1	4	·	·	-5	2	·	0	-11
CN(C)c1cc[n+](CC(=O)Nc2ccc(Cl)c([N+](=O)[O-])c2)cc1	-24	-2	-1	2	-13	i	10	-4
CC1(Oc2cnc(Cl)c3ccccc23)CCN(Cc2ccc(OC(F)(F)F)cc2)C1 (stereo not given)	-3	·	·	-1	5	·	-2	·
CCc1ccc2nc(Nc3nc(COC)cc(=O)[nH]3)nc(C)c2c1	·	-11	-11	11	0	i	·	·
COc1ccc(NC(=O)N(C)C[C@@H]2OCc3cnnn3CCCC(=O)N([C@@H](C)CO)C[C@H]2C)cc1	-2&5	·	·	4	4	·	-3	·
O=C(NCc1nc(-c2ccccc2)no1)c1ccc2c(c1)OCO2	-12	0	5	-3	1	i	-14	-9
Cc1cc(Cl)ccc1OCC(=O)OCC(=O)Nc1cccnc1Cl	-20	·	·	1	2	·	6	·
